VDR inh: blocks the human vitamin D receptor | AID 504847 | actives 0.93% (n = 400,000) | Potency, µM, inactives show max response, negative = inhibition, hits mostly inhibitors | VDR-SRC2-3 peptide fluorescence polarization, 2 h; active = well fitted inhibition curve with a large enough effect; inconclusive = small, poorly fitted or top-dose-only effect, or another doubt; inactive = no such curve, though single readings can be large or run the other way; note: series mostly up to about 120 µM
Target sequence (P11473 whole entry, looked up): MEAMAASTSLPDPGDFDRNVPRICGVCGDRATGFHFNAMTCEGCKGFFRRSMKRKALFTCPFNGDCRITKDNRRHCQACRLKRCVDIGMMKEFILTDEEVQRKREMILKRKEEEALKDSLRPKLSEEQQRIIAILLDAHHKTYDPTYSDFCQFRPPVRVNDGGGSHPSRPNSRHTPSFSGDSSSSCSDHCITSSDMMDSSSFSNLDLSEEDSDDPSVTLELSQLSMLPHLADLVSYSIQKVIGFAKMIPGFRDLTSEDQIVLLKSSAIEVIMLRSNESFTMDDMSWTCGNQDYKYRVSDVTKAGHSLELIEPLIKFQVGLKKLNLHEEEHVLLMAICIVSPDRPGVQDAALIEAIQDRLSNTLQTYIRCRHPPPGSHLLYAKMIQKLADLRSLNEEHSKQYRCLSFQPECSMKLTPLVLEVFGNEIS
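FP read-out; VDR + SRC2-3 coactivator peptide; 23 nl compound by pintool; 2 h RT incubation; reagents held at 4 deg C, protected from light.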
The depositor's hits bear a star; & = joins results of further samples; [ ] = remark or other dose. % is set by controls: 0 for no effect and ±100 for the full control effect; potency is the fitted concentration of half-maximal effect. The list is partial; rates above refer to the full screens.

What do the screens show for `O=C(OCC(=O)N(CCc1ccccc1)Cc1ccccc1)c1ccc(F)c(S(=O)(=O)N2CCOCC2)c1`?
VDR inh: 30.2%[activator]

Results for CCOC(=O)c1ccc(-c2ccc(/C=N/NC(=O)CN(c3cccc(C)c3)S(C)(=O)=O)o2)cc1 ?
VDR inh: -18.2%

How did Cc1[nH][nH]c(=O)c1C(c1ccc2c(c1)OCO2)c1c(C)[nH][nH]c1=O do in these assays?
VDR inh: inconclusive

What do the screens show for `COC(=O)c1ccccc1S(=O)(=O)N1CCC(C(=O)NC2CCCCC2)CC1`?
VDR inh: 1.2%

How did CC(C)N1CCC(=NNc2ccc(S(=O)(=O)N3CCOCC3)cc2[N+](=O)[O-])CC1 do in these assays?
VDR inh: -9.3%

How did COc1ccc(NC(=O)NCc2ccncc2)c(OC)c1 do in these assays?
VDR inh: 16.7%

How did O=C(CN1C(=O)c2ccc([N+](=O)[O-])cc2C1=O)Nc1ccccc1N1CCCC1 do in these assays?
VDR inh: -6.3%

How did Nc1cc(N)nc(CS)n1 do in these assays?
VDR inh: -4.9%

Results for S=c1nc(NCCc2ccccc2Cl)c2ccccc2[nH]1 ?
VDR inh: -2.1%

Results for COc1ccc(CN2CCCC(N3CCc4ccccc4C3)C2)c(O)c1 (stereo not drawn) ?
VDR inh: 10.0%

Results for N#CC(CCc1ccc([N+](=O)[O-])cc1)(CCc1ccc([N+](=O)[O-])cc1)C(N)=O ?
VDR inh: 3.5%

Results for Cc1cc(Cl)cc(Cl)c1OCCOCCN(C)C ?
VDR inh: -10.8%

Results for O=C(Cc1n[nH]c(=O)c2ccccc12)Nc1cc(Cl)ccc1-n1cncn1 ?
VDR inh: 5.6%

What do the screens show for `Cc1cccc(-c2sc(Nc3ccccc3)n[n+]2-c2ccc(F)cc2)c1`?
VDR inh: -17.5%

How did COc1ccc(C(=O)NCC(=O)N2CCN(C(=O)c3ccco3)CC2)cc1 do in these assays?
VDR inh: -0.1%

Results for N/C(=N\OC(=O)Cc1ccccc1)c1ccc([N+](=O)[O-])cc1 ?
VDR inh: -2.5%

Results for CCO[C@H]1OC(C(=O)N2CCCCCCC2)=C[C@@H](c2coc3ccccc3c2=O)[C@@H]1CCCO ?
VDR inh: -6.4%

What do the screens show for `COc1ccc(S(=O)(=O)N2CCOC2CNC(=O)C(=O)NCCc2ccccc2OC)cc1` (stereo not drawn)?
VDR inh: 7.8%

How did CCOC(=O)CNC(=O)O[C@@H]1C(=O)c2cc(OC)ccc2O[C@H]1c1ccc(OC)c(Br)c1 do in these assays?
VDR inh: 4.8%

Results for CCC(C)[C@H](NC(=O)OC(C)(C)C)C(=O)N/N=C/C1=Cc2ccccc2OC1 (stereo partly drawn) ?
VDR inh: 26.5%

Results for Clc1ccccc1C1=Nn2c(nnc2-c2ccncc2)SC1 ?
VDR inh: 5.7%

Results for O=C1CN(C(=O)COC(=O)c2ccc([N+](=O)[O-])o2)c2ccccc2N1 ?
VDR inh: -6.6%

How did COc1ccc(S(=O)(=O)N2CCN(CCOc3ccccc3Cl)CC2)cc1OC do in these assays?
VDR inh: -1.7%

How did O=[N+]([O-])c1ccc(S(=O)(=O)N2CCN(c3ccnc4cc(Cl)ccc34)CC2)cc1 do in these assays?
VDR inh: 18.9%

What do the screens show for `Cc1cc(C)nc(NS(=O)(=O)c2ccc(NC(=O)c3ccc4c(c3)OCCO4)cc2)n1`?
VDR inh: 10.0%

How did O=C(CCCCCn1c(=S)[nH]c2ccc(N3CCOCC3)cc2c1=O)NC1CCN(Cc2ccccc2)CC1 do in these assays?
VDR inh: 4.6%

Results for COc1ccc(SC[C@H](CC(C)C)N2CCN(C)CCC2=O)cc1 ?
VDR inh: -4.3%

Results for CCS(=O)(=O)Nc1cccc(C2=NN(S(=O)(=O)c3ccc(C)cc3)C(c3ccco3)C2)c1 (stereo not drawn) ?
VDR inh: -7.0%

How did Cc1ccc(/C=C/C(=O)Nc2ccc3nc(N4CCC(C)CC4)cc(C)c3c2)cc1 do in these assays?
VDR inh: -7.5%

How did CCOC(=O)C1(C)/C(=N/Nc2ccccc2Cl)C(=O)C(=O)N1c1ccccc1 (stereo not drawn) do in these assays?
VDR inh: 0.3%

How did COc1ccc(C(=O)Oc2cc(N)n(S(=O)(=O)c3ccccc3)n2)cc1 do in these assays?
VDR inh: -18.6%

Results for O=C(Cn1cnc2c(oc3ccccc32)c1=O)N1CCCc2ccccc21 ?
VDR inh: -3.0%

Results for CCOC(=O)c1sc(SCC(=O)Nc2ccc(N(C)C)cc2)nc1N ?
VDR inh: 10.0%

What do the screens show for `COc1ccc(C2=NN(C(=O)CSc3ncccn3)C(c3cccc(OC)c3OC)C2)cc1` (stereo not drawn)?
VDR inh: 0.8%

Results for O=C(CSc1nnnn1-c1ccccc1)Nc1ccc(Cl)cn1 ?
VDR inh: -1.0%

How did COc1ccc(NC(=O)c2ccccc2-c2ccc(C(F)(F)F)cc2)cc1S(=O)(=O)N1CCOCC1 do in these assays?
VDR inh: -4.2%

What do the screens show for `COc1cccc(N2CC(NC(=O)Cc3cccs3)CC2=O)c1` (stereo not drawn)?
VDR inh: 5.3%

How did COc1ccc2cc3cc(C(=O)Nc4ccc5c(c4)OCO5)oc3nc2c1 do in these assays?
VDR inh: -5.7%

Results for CC(C)(C)c1cc(C(=O)N/N=C/c2ccc(O)cc2)n(-c2ccccc2)n1 ?
VDR inh: -16.7%

Results for CCCn1nnnc1NCc1ccc(N(CC)CC)cc1 ?
VDR inh: -17.3%

How did O=C(c1ccco1)C(O)c1ccco1 (stereo not drawn) do in these assays?
VDR inh: -9.5%

What do the screens show for `C[C@@H]1CC=C[C@H]2[C@H]1C(=O)N(Cc1ccccc1)[C@H]2c1ccc(-c2cc3ccccc3s2)cc1F`?
VDR inh: -1.3%

Results for Cn1c(SCC(=O)N2c3ccccc3CCc3ccccc32)nnc1-c1cc2ccccc2cc1O ?
VDR inh: -12.0%

How did CCOC(=O)CSc1nc(NC#N)nc(N(CC)CC)n1 do in these assays?
VDR inh: 8.3%

What do the screens show for `CCOC(=O)c1c(C)nn(-c2ncccc2NC(=O)NC(C)C)c1C`?
VDR inh: 4.6%

How did COc1cc2c(cc1OC)CN(c1ccc3ccccc3n1)CC2 do in these assays?
VDR inh: 8.0%

How did CC(=O)Nc1ccc(NC(=O)C(C)OC(=O)CCC2CCCC2)cc1 (stereo not drawn) do in these assays?
VDR inh: -2.9%

How did Cn1cccc1CC(=O)N/N=C/c1ccco1 do in these assays?
VDR inh: -5.7%

How did C=CCn1c(COc2cccc3ccc(C)nc23)nnc1SCC(N)=O do in these assays?
VDR inh: -6.8%

Results for O=C(CCCc1c[nH]c2ccccc12)NCC1COc2ccccc2O1 (stereo not drawn) ?
VDR inh: 5.9%

Results for COc1ccc(C(=O)NCCS(=O)(=O)NCCc2ccccc2)cc1 ?
VDR inh: -15.9%

Results for CC1C=CCC2C(=O)N(c3ccccc3OC(=O)c3ccco3)C(=O)C12 (stereo not drawn) ?
VDR inh: 9.3%

How did Cc1cccc(NC(=O)c2cccc(Cn3cc(Br)c([N+](=O)[O-])n3)c2)c1C do in these assays?
VDR inh: 23.0%

How did COc1ccc(S(=O)(=O)N2CCOCC2)cc1NC(=O)c1cccc(Cl)c1 do in these assays?
VDR inh: -1.9%

How did OB(O)c1cc2ccccc2s1 do in these assays?
VDR inh: -17.9%

Results for O=C1Cc2ccccc2C(c2ccccc2)N1 (stereo not drawn) ?
VDR inh: 0.0%

How did COc1cccc(/C=C/c2nc(C#N)c(N(C)Cc3ccccc3)o2)c1 do in these assays?
VDR inh: 9.4%

How did Cc1ccc(S(=O)(=O)N2[C@@H](c3ccc(Cl)cc3)C(C(=O)O)=C[C@H]2C(C)(C)C)cc1 do in these assays?
VDR inh: -22.2%

What do the screens show for `CC(C)(C)NCC(O)COc1cccc2c1CCC(=O)N2` (stereo not drawn)?
VDR inh: -15.3%

How did Cc1cc(C)c(NC(=O)COC(=O)C2CCCO2)c(C)c1 (stereo not drawn) do in these assays?
VDR inh: 5.9%

What do the screens show for `COc1ccc(N/C=C/C(=O)c2sc(-c3ccccc3)nc2C)cc1`?
VDR inh: -12.4%

What do the screens show for `C=CCNc1nc(-c2cc3ccccc3o2)cs1`?
VDR inh: -5.5%

Results for COc1cccc(-c2cc(C(=O)N3CC4(C)CC3CC(C)(C)C4)no2)c1 (stereo not drawn) ?
VDR inh: 4.7%

Results for Cc1sc2nc(SCC(=O)Nc3cccc(S(N)(=O)=O)c3)[nH]c(=O)c2c1C ?
VDR inh: -25.0%

Results for CCOc1ccc(C(=O)Nc2ccc3c(c2)OCO3)cc1OCC ?
VDR inh: 13.6%

Results for COc1cc(/C=N/NC(=O)c2ccncc2)cc2c1OCO2 ?
VDR inh: 16.7%

How did Nc1cc(=O)[nH]c(SCc2nnnn2-c2ccc(Cl)cc2)n1 do in these assays?
VDR inh: -0.1%

What do the screens show for `Cn1c(O)c(N=NC(=O)CNC(=O)c2cccnc2)c2ccccc21`?
VDR inh: -9.2%

Results for CCn1c(NCc2ccccc2NS(=O)(=O)c2ccc(C)cc2)nc2ccccc21 ?
VDR inh: -13.7%

How did CCOc1ccc(C(=O)NCC(=O)NNC(=O)CN(C)S(=O)(=O)c2ccc(Cl)cc2)cc1OCC do in these assays?
VDR inh: -9.4%

Results for COc1ccc(/C=C/C(=O)Nc2cccc(N3CCOCC3)c2)cc1OC ?
VDR inh: -13.0%

What do the screens show for `O=C(CCc1nc2ccccc2c(=O)[nH]1)Nc1cc(Cl)ccc1N1CCCC1`?
VDR inh: 11.4%

4 neighbouring records out of the list so far, for reference:
Results for CCn1c(NCc2ccccc2NS(=O)(=O)c2ccc(C)cc2)nc2ccccc21 ?
VDR inh: -13.7%

How did CCOc1ccc(C(=O)NCC(=O)NNC(=O)CN(C)S(=O)(=O)c2ccc(Cl)cc2)cc1OCC do in these assays?
VDR inh: -9.4%

Results for COc1ccc(/C=C/C(=O)Nc2cccc(N3CCOCC3)c2)cc1OC ?
VDR inh: -13.0%

What do the screens show for `O=C(CCc1nc2ccccc2c(=O)[nH]1)Nc1cc(Cl)ccc1N1CCCC1`?
VDR inh: 11.4%

Further structures follow.
How did COc1ccc(NC(=O)CN2CCC(C(=O)c3ccc(F)cc3)CC2)c(OC)c1 do in these assays?
VDR inh: -1.0%

What do the screens show for `NC(=O)c1nsc(C(=O)N(c2ccccc2F)C(C(=O)NCc2ccc(F)cc2)c2ccc(O)cc2)c1N` (stereo not drawn)?
VDR inh: 7.6%

What do the screens show for `Cc1ccc(C)c(N2CCN(CC3CCCCC3)CC2)c1`?
VDR inh: 5.8%

Results for CCC(C)N1C(=O)CCC1C(=O)NCc1ccc2c(c1)OCO2 (stereo not drawn) ?
VDR inh: -17.8%

How did COc1ccc2c(c1)-c1nc(/N=C/c3cccc(OC)c3O)sc1CC2 do in these assays?
VDR inh: 7.7%

What do the screens show for `CCNC(=O)c1ccc(NS(=O)(=O)c2ccc3[nH]c(=O)[nH]c3c2)cc1`?
VDR inh: 2.3%

Results for Cc1cccc(N2CCN(C(=O)c3cc(COc4ccc(F)c(F)c4)on3)CC2)n1 ?
VDR inh: -1.9%

What do the screens show for `CCN(CC(=O)NCc1cccs1)S(=O)(=O)c1cc(NC(C)=O)ccc1OC`?
VDR inh: 6.0%

How did CCOc1nc(-c2ccccc2Cl)nc2ccccc12 do in these assays?
VDR inh: 15.3%

Results for CC1CC(C)CN(S(=O)(=O)c2ccc(NC(=O)C3CC(=O)N(Cc4ccccc4)C3)cc2)C1 (stereo not drawn) ?
VDR inh: -0.7%

What do the screens show for `CC(OC(=O)C1CC1)C(=O)Nc1ccc([N+](=O)[O-])cc1Cl` (stereo not drawn)?
VDR inh: -4.4%

What do the screens show for `O=C(CSc1nnnn1-c1ccccc1)Nc1ccccc1`?
VDR inh: -5.3%

The last five compounds of the part before lead into the next:
What do the screens show for `CCN(CC(=O)NCc1cccs1)S(=O)(=O)c1cc(NC(C)=O)ccc1OC`?
VDR inh: 6.0%

How did CCOc1nc(-c2ccccc2Cl)nc2ccccc12 do in these assays?
VDR inh: 15.3%

Results for CC1CC(C)CN(S(=O)(=O)c2ccc(NC(=O)C3CC(=O)N(Cc4ccccc4)C3)cc2)C1 (stereo not drawn) ?
VDR inh: -0.7%

What do the screens show for `CC(OC(=O)C1CC1)C(=O)Nc1ccc([N+](=O)[O-])cc1Cl` (stereo not drawn)?
VDR inh: -4.4%

What do the screens show for `O=C(CSc1nnnn1-c1ccccc1)Nc1ccccc1`?
VDR inh: -5.3%

How did CC1CCc2sc(C(=O)N/N=C/c3ccc(O)cc3)cc2C1 (stereo not drawn) do in these assays?
VDR inh: -13.6%

Results for CC1(C)CC(CCN)(Cc2ccccc2Cl)CCO1 (stereo not drawn) ?
VDR inh: -3.2%

What do the screens show for `Cn1c(N)c(C(=O)COC(=O)c2cc(C3CC3)nc3ccccc23)c(=O)n(Cc2ccccc2)c1=O`?
VDR inh: -2.6%

How did CC(C)(C)c1ccc(-c2nc(S(=O)(=O)c3ccccc3)c(N3CCOCC3)o2)cc1 do in these assays?
VDR inh: 10.5%

How did Nc1c(Br)cc(Br)cc1CNC1CCC(O)CC1 (stereo not drawn) do in these assays?
VDR inh: -12.0%&-2.8%&-5.9%&-3.1%&-2.1%

What do the screens show for `N[C@@H](Cc1cc(CP(=O)(O)O)cc(-c2ccccc2Cl)c1)C(=O)O`?
VDR inh: -19.0%&8.6%

How did CCOc1ccc(N2C(=O)C3C(C2=O)C3(c2ccccc2)c2ccccc2)cc1 (stereo not drawn) do in these assays?
VDR inh: -6.4%

Results for CC(C)CNC(=O)C1CCCN(S(=O)(=O)c2ccc(-n3cnnn3)cc2)C1 (stereo not drawn) ?
VDR inh: -9.6%

Results for O=C(NCc1ccco1)C(c1ccco1)N(Cc1cccs1)C(=O)Cn1nnc2ccccc21 (stereo not drawn) ?
VDR inh: -11.6%

What do the screens show for `Cc1ccc(S(=O)(=O)NC(c2ccccc2)C(C)C(=O)n2nc(C)cc2C)cc1` (stereo not drawn)?
VDR inh: -5.4%

How did COc1ccccc1C(=O)N1CCC(c2c[nH]c3ccccc23)(c2c[nH]c3ccccc23)CC1 do in these assays?
VDR inh: 4.6%

Source: PubChem BioAssay (National Center for Advancing Translational Sciences (NCATS))
